miR-21 reporter – qHTS Assay for Modulators of miRNAs and/orActivators of miR-21 | Potency, µM (series often up to 38.3 µM), inactives show at the top dose reporter change, positive = more light | HeLa miR-21 FLuc reporter, luciferase, 48 h | 340,000 tested, under 10 active; active = well fitted rising curve with a large enough effect; inconclusive = small, poorly fitted or top-dose-only effect; inactive = no such curve, though single readings can be large or run the other way;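 further: % of control where 0% means no effect; miR-21 action dims this reporter so a rising signal means less miR-21 action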
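HeLa cells endogenously expressing miR-21, stably carrying CMV-driven firefly luciferase with a downstream miR-21 binding site, 2000 cells/well. Titrations up to approximately 40 uM, 48 hours; luciferase luminescence read.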
Rango complex inh – qHTS Assay for Inhibitors of Rango (Ran-regulated importin-beta cargo) - Importin beta complex formation; AID 540263, 2011; Rango CFP/YFP FRET sensor + importin beta, 45 min; Importin subunit beta-1 (Homo sapiens), Q14974; actives 0.031% (n = 340,000); Potency, µM (doses to about 92.2 µM), without a hit: at the top dose inhibition of complex formation; active = rising FRET ratio curve, often small or poorly fitted; inconclusive = mostly compound fluorescence or quenching in the first reads; inactive = flat curves in all reads;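 further: potency means the concentration at half of the fitted maximal effect; 0% = DMSO wells and 100% = buffer wells lacking importin beta; nearly all actives have a fitted effect of over 15% in size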
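FRET biosensor Rango (snurportin 1 IBB between N-terminal EYFP and C-terminal Cerulean), 50 nM in PBS/1 mM DTT/0.02% Tween-20/0.1% BSA, preincubated 5 min RT with compound; 0.125 microM importin beta added, 45 min RT, CFP/YFP FRET ratio read.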
Rango release inh – qHTS Assay for Inhibitors of RanGTP induced Rango (Ran-regulated importin-beta cargo) - Importin beta complex dissociation; Snurportin-1 (Homo sapiens) + GTP-binding nuclear protein Ran (Homo sapiens) + Importin …; Biochemical FRET Rango-importin beta, RanGTP-induced dissociation; actives 0.071% (n = 340,000); Potency, µM (series often up to 46.1 µM), without a hit: at the top dose activity change, negative = inhibition; active means falling FRET ratio curve, often poorly fitted, with flat reads before Ran was added; inconclusive means other falling curves, or compound fluorescence or quenching; inactive means flat or rising ratio curve;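 further: potency means the concentration at half of the fitted maximal effect; % of control where 0% means no effect; nearly all actives have a fitted effect of over 45% in size; -100% = wells without RanGTP and RCC1; the record marks most hits as doubtful in a second field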
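Quantitative HTS using a FRET biosensor: 0.1 uM Rango, 0.25 uM importin beta, 0.6 uM Ran, 2 mM GTP, 0.2 uM RCC1 final, PBS with DTT, Tween-20 and BSA. Post-read taken 45 min after Ran addition.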
GLA inh pH 4.5 – qHTS Assay for Inhibitors of Human alpha-Galactosidase at pH 4.5. Alpha-galactosidase A (Homo sapiens), P06280. purified enzyme, 4-MU-alpha-Gal fluorescence, pH 4.5. activity change, negative = inhibition, % at 105 µM. 230,000 tested, under 10 active; inconclusive = small, poorly fitted or top-dose-only inhibition, or a rising curve; inactive = flat fitted curve, though single readings scatter; no compound was filed as active;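 further: 0% = full activity with enzyme and -100% = basal without enzyme; dose as in the result columns while the protocol names 77 µM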
Target sequence (P06280 whole entry, looked up): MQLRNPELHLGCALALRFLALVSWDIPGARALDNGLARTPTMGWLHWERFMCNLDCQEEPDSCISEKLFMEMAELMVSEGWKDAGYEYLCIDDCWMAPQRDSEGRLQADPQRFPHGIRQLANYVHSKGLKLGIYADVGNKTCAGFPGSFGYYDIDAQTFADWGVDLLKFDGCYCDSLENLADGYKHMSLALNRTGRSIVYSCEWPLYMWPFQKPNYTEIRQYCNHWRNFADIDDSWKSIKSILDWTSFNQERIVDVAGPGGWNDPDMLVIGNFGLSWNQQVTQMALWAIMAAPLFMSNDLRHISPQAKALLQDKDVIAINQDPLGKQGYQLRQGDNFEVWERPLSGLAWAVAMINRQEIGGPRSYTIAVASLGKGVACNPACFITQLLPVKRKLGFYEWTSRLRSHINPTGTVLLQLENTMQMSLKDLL
* hit, by the source's call; ? = inconclusive; / = no result given.

structure	Rango release inh	GLA inh pH 4.5	Rango complex inh	miR-21 reporter
COc1ccc(S(=O)(=O)Nc2cccc(S(=O)(=O)N3CCCCC3)c2)cc1	13%	/	0.2%	/
COc1ccc(Cl)cc1C(=O)NNC(=S)NC(=O)c1cc(-c2ccccc2)nc2ccccc12	-16%	-12	1.2%	7%
CN(Cc1ccccc1)C(=O)COC(=O)c1ccccc1SCC(=O)N1CCCC1	28%	/	2.2%	/
CCN(CCn1cccn1)C(=O)CC1C(=O)NCCN1CCc1ccccc1 (stereo not given)	-19%	/	?	-7%
COc1ccc(C)cc1CN(C)c1ccc(S(=O)(=O)N2CCN(C)CC2)cn1	-16%	/	-0.3%	/
C/C(=N/Nc1ccc(Cl)cc1)c1cnnc(-c2ccccc2)n1	20%	-2	1.3%	-4%
CCCCOC(=O)Cn1c(-c2ccccc2)nc2ccccc2c1=O	6%	0	2.2%	-8%
CCCNC(=O)N1CCN(S(=O)(=O)c2ccc3c(c2)OCCO3)CC1	1%	/	0.6%	/
CCOC(=O)c1cnc(SC)nc1Nc1cccc2ccccc12	0%	-19	-2.3%	-5%
Cc1cc(-c2ccccc2)nc(SC(C(=O)O)c2ccccc2)n1 (stereo not given)	5%	9	1.5%	1%
CC(C)NC(=O)NCCCCCCS(C)=O (stereo not given)	0%	6	1.5%	0%
CC1=C(C(=O)NCc2ccco2)C2(CCC(C)CC2)OC1=O (stereo not given)	1%	17	0.2%	-6%
CCN(CC)c1ccc(NC(=O)CSc2nc(C3CC3)nc3ccccc23)cc1C	-3%	/	-3.0%	24%
CCCC(=O)Nc1nnc(CCOC)s1	-12%	2	-0.1%	6%
CCCN1CCN(S(=O)(=O)c2ccc3c(c2)OCCO3)CC1	29%	-9	?	-2%
O=c1c2ccccc2c(/C=N/c2ncn[nH]2)c(O)n1Cc1ccccc1	?	-10	?	-8%
CCOC(=O)CN1C(=O)C(O)(CC(=O)c2cccc(OC)c2)c2ccccc21 (stereo not given)	-7%	-2	-3.4%	-10%
CC(c1ccccc1)N1CC(C(=O)Nc2nccs2)CC1=O (stereo not given)	1%	/	-2.9%	5%
COCC(=O)N1CCC(n2nccc2NC(=O)CCOc2ccccc2)CC1	4%	/	-2.3%	-19%
O=C(CCC(=O)NCCCc1ccccc1)NCCCc1ccccc1	-10%	-5	1.3%	-5%
Cc1nc(-c2ccc(F)cc2)c(CC(=O)NCC(=O)Nc2ccc(F)c(F)c2)s1	-13%	/	0.9%	/
Cc1ccc(C)c(C(=O)Cn2c(NCCO)nc3ccccc32)c1	-27%	/	-1.9%	-4%
CCN(C(=O)COC(=O)CNC(=O)c1ccc2ccccc2c1)c1c(N)n(Cc2ccccc2)c(=O)[nH]c1=O	-9%	/	-5.8%	/
Cc1cc(Cl)ccc1NC(=O)CCC(=O)O	-3%	-11	-2.1%	1%
CCSc1nnc(-c2ccccc2NC(C)=O)c(=O)[nH]1	1%	5	0.0%	-1%
O=C1O/C(=C/C(=O)N2CCOCC2)c2ccccc21	2%	5	-1.1%	-3%
COc1cc2sc(-c3ccc(S(C)(=O)=O)cc3)c(C(=O)NCCCCO)c2cc1OC	1%	/	0.4%	/
CCc1nnc(NC(=O)c2ccc(COc3cccc(C)c3)o2)s1	1%	/	-2.1%	1%
O=C1CNC(=S)N1Cc1cccc(Cl)c1	-15%	/	-0.2%	6%
CC(C)CNC(=O)c1cccc(NC(=O)c2ccco2)c1	-10%	0	2.6%	-5%

Profiles, looked up by structure:
`COc1cc2sc(-c3ccc(S(C)(=O)=O)cc3)c(C(=O)NCCCCO)c2cc1OC` is entered as Rango release inh = 1%; GLA inh pH 4.5 = /; Rango complex inh = 0.4%; miR-21 reporter = /
`O=C1CNC(=S)N1Cc1cccc(Cl)c1` is entered as Rango release inh = -15%; GLA inh pH 4.5 = /; Rango complex inh = -0.2%; miR-21 reporter = 6%
`CC(C)CNC(=O)c1cccc(NC(=O)c2ccco2)c1` is entered as Rango release inh = -10%; GLA inh pH 4.5 = 0; Rango complex inh = 2.6%; miR-21 reporter = -5%

Going on with the list.
structure	Rango release inh	GLA inh pH 4.5	Rango complex inh	miR-21 reporter
COc1cccc(C(=O)Nc2ccc3c(c2)C(=O)NC3=O)c1	-8%	/	2.1%	-3%
O=C(NC1CCCC1)c1cccc(NC(=O)c2ccco2)c1	5%	-5	2.5%	-9%
COc1ccc(C(N)=O)cc1NC(=O)c1cccc(F)c1	2%	0	-1.3%	-5%
N#CCC(=O)N/N=C/c1ccc(OCC(=O)Nc2ccc(F)cc2)cc1	-10%	5	0.7%	-4%
CSc1cccc(NS(=O)(=O)c2cccc3nsnc23)c1	-9%	-6	-2.2%	-11%
COc1cccc(CNC(=O)CC2C(=O)NCCN2Cc2ccoc2)c1OC (stereo not given)	1%	-1	2.3%	-1%
O=C(COC(=O)/C=C/c1ccc(Cl)cc1)NC1CCCC1	0%	/	0.4%	/
COC(=O)c1c(C)oc2ccc(NS(=O)(=O)c3cccs3)cc12	-6%	-2	-3.5%	0%
O=C(Cc1ccccc1)Nc1ccc(F)cc1	12%	6	-0.7%	-13%
CC(OC(=O)c1cccs1)C(=O)Nc1nc(-c2ccccc2)cs1 (stereo not given)	2%	-6	-3.0%	-40%
O=C(Nc1cccc(-n2cnnn2)c1)c1cc(Cl)ccc1Cl	-5%	/	-1.7%	-1%
O=C(Nc1ccc(-c2n[nH]c(=S)o2)cc1)c1ccccc1Br	41%	/	-0.3%	-34%
COC(=O)c1nccnc1C(=O)Nc1ccccc1N1CCOCC1	-4%	/	3.0%	-1%
[O-][n+]1onc2c1CCC1N(O)C(c3ccccc3)CC21O (stereo not given)	-9%	-6	7.6%	2%
O=C(Cc1cccs1)N/N=C/c1ccccn1	2%	-1	-0.8%	-28%
COc1ccc(-c2csc3ncnc(N4CCN(c5ccc(OC)cc5)CC4)c23)cc1	2%	/	3.0%	4%
CC(=O)c1ccc(NC(=O)CCC(=O)OCC(=O)c2cccc([N+](=O)[O-])c2)cc1	14%	/	-3.2%	-6%
CC(C)c1[nH]nc2c1C(C(C)C)C(C#N)=C(N)O2 (stereo not given)	0%	-16	-1.6%	0%
Cc1noc(C)c1S(=O)(=O)NCc1cccc(Cl)c1	4%	/	1.0%	/
CCN(C(=O)CSc1nnc(COc2cccc(C)c2)o1)c1nc(C)cs1	-13%	/	-0.6%	0%
CCOCCn1c(CN2CCCC(C)C2)nc2c1c(=O)n(C)c(=O)n2C (stereo not given)	-5%	3	-3.6%	-5%
O=C(Nc1cn(-c2ccccc2)nc1-c1ccc(F)cc1)c1ccccc1	-2%	4	-1.4%	-1%
CC(CCc1ccccc1)NC(=O)CCN1N=C(c2ccccc2)CCC1=O (stereo not given)	-5%	-7	-1.1%	3%
CC(C)(C)c1ccc(C(=O)NCCOc2ccccc2F)cc1	-3%	/	4.5%	17%
COc1cccc(-n2c(C)cc(/C=C3\C(=N)N4N=C(CC(=O)N5CCOCC5)SC4=NC3=O)c2C)c1	?	/	?	-6%
COCCOC(=O)C(CC(=O)O)NCc1ccco1 (stereo not given)	6%	-4	-3.3%	-1%
O=C(O)c1cc(S(=O)(=O)N(Cc2ccccc2)c2cccc(C(F)(F)F)c2)ccc1Cl	-10%	/	-1.6%	1%
COc1ccc(CCNC(=O)CSc2nnc3ccc(-c4ccccn4)nn23)cc1	-5%	/	4.2%	/
COc1ccc(OC)c(CN2CCCC(C(=O)c3ccccc3SC)C2)c1 (stereo not given)	9%	-5	?	14%
CCc1cc2c(=O)n(CCC(C)C)c(=S)[nH]c2s1	11%	3	?	-3%
COc1cc(C(C)=O)ccc1OCC(=O)Nc1ccccc1N1CCCC1	-5%	/	0.2%	8%
CCOC(=O)Cc1cc(=O)n2[nH]c(-c3ccc(Cl)cc3)cc2n1	-8%	3	?	-3%
O=C1CSC(=S)N1Nc1ccccc1	-11%	/	0.9%	/
Cc1ccc(N(CC(=O)NCC2CCCO2)C(=O)Cn2nnc(-c3cccs3)n2)cc1 (stereo not given)	-1%	1	1.2%	-11%
C[C@H](CO)N1C[C@H](C)[C@@H](CN(C)C(=O)Nc2ccccc2)Oc2ccc(NC(=O)Nc3ccccc3)cc2C1=O	12%	/	-0.9%	/
O=C(c1n[nH]c(=O)c2ccccc12)N1CCN(c2ccccc2Cl)CC1	3%	2	-0.9%	-4%
CC1C(=O)N2CCCc3cc(S(=O)(=O)N4CCCCC4)cc1c32 (stereo not given)	-8%	/	-0.5%	/
Cc1ccc(-c2nnc(SCC(=O)NC3CC3)o2)cc1	?	/	1.1%	-38%
O=C(NCC1CCCO1)C1CCN(CC2CCCCC2)CC1 (stereo not given)	8%	0	-0.2%	-2%
COC(=O)c1ccccc1CC1SC(N)=NC1=O (stereo not given)	-10%	/	-2.0%	-2%
CC(C)CC(=O)NC(=S)Nc1ccc(Cl)cn1	5%	-5	-0.5%	-51%
Cc1ccc(NC(=O)c2cc(C)n(-c3cccc(C)c3)c2C)cc1	?	-12	-1.7%	-27%
COc1cccc(CNC(=O)Cc2ccc(OC)c(S(=O)(=O)N3CCOCC3)c2)c1	31%	/	3.5%	/
Cc1cc(C)cc(N(CC(=O)NCC2CCCO2)C(=O)CCC(=O)Nc2cc(C)on2)c1 (stereo not given)	1%	-13	-1.4%	-3%
CN1C(=O)/C(=C/c2coc3ccc(O)cc3c2=O)SC1=S	-7%	-10	-1.3%	-4%
O=C(Cn1cnc2ccccc2c1=O)Nc1ccccc1N1CCOCC1	-25%	-3	-4.9%	-1%
CC(C)C(C)NC(=O)CN1C(=O)NC(c2ccccc2)(c2ccccc2)C1=O (stereo not given)	-13%	/	1.4%	0%
CNC(C)C(=O)NC(C(=O)N1CCCC1C(=O)Nc1ccc2ncccc2c1)C(C)C (stereo not given)	-7%	/	-2.8%	/
Cc1ccc(OCc2cccc(S(=O)(=O)N(C)C)c2)c([N+](=O)[O-])n1	16%	/	-0.5%	-13%
COc1ccc(/C=N/n2nnnc2N)cc1OC	10%	1	-0.6%	-15%

3 entries already listed, arranged by the value under Rango complex inh, descending.
structure	Rango release inh	GLA inh pH 4.5	Rango complex inh	miR-21 reporter
CC(C)CC(=O)NC(=S)Nc1ccc(Cl)cn1	5%	-5	-0.5%	-51%
CN1C(=O)/C(=C/c2coc3ccc(O)cc3c2=O)SC1=S	-7%	-10	-1.3%	-4%
CNC(C)C(=O)NC(C(=O)N1CCCC1C(=O)Nc1ccc2ncccc2c1)C(C)C (stereo not given)	-7%	/	-2.8%	/

More compounds follow:
structure	Rango release inh	GLA inh pH 4.5	Rango complex inh	miR-21 reporter
O=[N+]([O-])c1ccc(COc2ccccc2CN2CCOCC2)cc1	?	/	3.7%	/
CC(=O)Nc1ccc(NC(=O)COc2ccc(-c3ccc(C#N)cc3)cc2)cc1	1%	/	-1.5%	/
Cc1nc(Nc2ccc(S(N)(=O)=O)cc2)sc1-c1ccccc1	-2%	/	2.4%	-32%
CN(CC(=O)Nc1ccccc1N1CCOCC1)S(=O)(=O)c1ccc(F)cc1	32%	3	-0.8%	-2%
Cc1ccc(N(CC(=O)NC(C)C)C(=O)CCC(=O)Nc2nccs2)c(C)c1	3%	/	0.7%	-4%
CC(C)(C)c1cc(OS(C)(=O)=O)ccc1O	-7%	1	2.1%	-4%
CC(C)c1ccc(O)c(NC(=S)NC(=O)c2ccc3c(c2)OCO3)c1	-13%	/	-0.1%	-25%
O=C(Nc1nnc(COc2ccc(Br)cc2)s1)c1ccco1	24%	1	3.0%	-5%

Screens deposited in PubChem by National Center for Advancing Translational Sciences (NCATS).

This is a subset. The share of hits here may be higher or lower than overall.
